From PubChem
TRPML1 ag: qHTS for Agonists of the Human Mucolipin Transient Receptor Potential 1 (TRPML1) | hit rate 0.12% among 410,000 | activation, % (test concentration not listed) | TRPML1-expressing cells, Ca2+ dye fluorescence, FDSS; host cell line not named in the record; reference of the full effect not given here | Mucolipin-1 (Homo sapiens), Q9GZU1; in the data active = activation above about 50%; inconclusive = about 30% to 50%; inactive = below about 30%; note: 0% is about no effect; the text of the record puts the active cut at 80%
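Kinetic FDSS Ca2+ read in Tet-induced TRPML1-DL cells (ABD Ca8 dye plus quencher, 45-90 min RT loading): baseline, then compound, then 110 s agonist window; EC80 agonist 54-4 at 4uM final added afterwards for a 110 s antagonist window.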
D2 ag: Beta-Arrestin HTS for Positive Allosteric Modulators of the Human D2 Dopamine Receptor: Agonists; DiscoveRx PathHunter D2 beta-arrestin, luminescence, 90 min; 100% = 57 uM dopamine signal; hit rate 0.084% among 360,000; D(2) dopamine receptor (Homo sapiens), P14416; activation, % (no concentration beside the values); in the data active = activation above about 40%; inconclusive = about 15% to 40%; inactive = below about 15%; note: compound concentration not given in the record; the text of the record calls up to 30% inactive
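DiscoveRx PathHunter D2 beta-arrestin cells (2,100/well) attached overnight, then compound-stimulated 90 min at 37 C in HBSS/10 mM HEPES/0.1% Tween-20 buffer; beta-galactosidase complementation read by luminescence after 1 h at ambient temperature. Dopamine 57 uM final (EC100) as control.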
PINK1 modulator: A Quantitative High throughput Screen to Identify Chemical Modulators of PINK1 Expression; AID 624263, 2012; hit rate 0.2% among 410,000; PINK1 immunofluorescence, high-content cytometry, 24 h; Potency, µM (titrated, usually from 76.6 µM), for the others: at the highest dose activation (PINK1 increase), usual class: activators; active = well fitted activation curve with a large enough effect; inconclusive = small, poorly fitted or top-dose-only effect; inactive = flat fitted curve, though single readings scatter; cell line not stated here;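 note: potency is the fitted concentration of half-maximal effect; % of control where 0% means no effect; nearly all actives have a fitted effect of over 65% in size; a mitochondrial uncoupler was the plate control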
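A stable cell line was treated with compounds at 5 concentrations for 24 hours, with CCCP as control. PINK1 levels and mitochondrial localization were measured by immunofluorescence with mitochondrial, cell and nuclear markers after fixation, read by laser-scanning cytometry.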
Six1-Eya2 blk: qHTS Assay for Inhibitors of the Six1/Eya2 Interaction; AlphaScreen GST-Six1/His-Eya2 binding, biochemical; hits give low values; control for the full effect not named in the record; activity change, % (concentration not given with the values); hit rate 0.56% among 360,000; AID 651725, 2012; in the data active = activity change below about -65%; inconclusive = about -30% to -65%; inactive = above about -30%; note: % is set by controls: 0 for no effect and ±100 for the full control effect
Target sequence (O00167 whole entry, looked up): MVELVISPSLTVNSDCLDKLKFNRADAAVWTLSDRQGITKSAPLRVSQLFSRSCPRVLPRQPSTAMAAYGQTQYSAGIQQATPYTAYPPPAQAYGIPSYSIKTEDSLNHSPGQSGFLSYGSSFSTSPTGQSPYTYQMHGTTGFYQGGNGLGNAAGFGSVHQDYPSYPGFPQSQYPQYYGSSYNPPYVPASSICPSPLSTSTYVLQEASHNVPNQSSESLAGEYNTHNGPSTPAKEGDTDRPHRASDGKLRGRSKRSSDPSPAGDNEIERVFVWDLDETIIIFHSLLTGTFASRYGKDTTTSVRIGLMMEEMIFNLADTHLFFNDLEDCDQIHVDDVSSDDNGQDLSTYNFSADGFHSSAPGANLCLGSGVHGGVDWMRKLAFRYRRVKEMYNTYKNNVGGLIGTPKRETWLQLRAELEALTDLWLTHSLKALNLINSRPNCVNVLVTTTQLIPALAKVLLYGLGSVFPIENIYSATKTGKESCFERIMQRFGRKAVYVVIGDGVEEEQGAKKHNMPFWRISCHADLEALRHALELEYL
Target sequence (Q15475 whole entry, looked up): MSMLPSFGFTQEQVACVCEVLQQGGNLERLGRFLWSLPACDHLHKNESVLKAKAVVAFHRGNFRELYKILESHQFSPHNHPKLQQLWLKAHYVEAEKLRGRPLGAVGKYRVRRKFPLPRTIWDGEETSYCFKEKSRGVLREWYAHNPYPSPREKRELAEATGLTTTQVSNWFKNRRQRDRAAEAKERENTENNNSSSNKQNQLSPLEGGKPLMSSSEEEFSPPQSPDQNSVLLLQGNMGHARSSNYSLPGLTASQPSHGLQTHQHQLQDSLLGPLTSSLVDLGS
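Compounds are tested against tagged Six1 and Eya2 proteins bridged by glutathione donor and nickel acceptor beads; after a one-hour incubation at 37 °C without light, AlphaScreen emission is recorded.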
D2 PAM: Beta-Arrestin HTS for Positive Allosteric Modulators of the Human D2 Dopamine Receptor: Potentiators. D(2) dopamine receptor (Homo sapiens), P14416. DiscoveRx D2 beta-arrestin cells, luminescence, 90 min; 100% = 57 uM dopamine signal. potentiation, % (concentration not given with the values). hit rate 0.23% among 360,000. AID 624464, 2012; active = potentiation of 50% or more; inconclusive = 30% to 50%; inactive = 30% or less;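 note: compound concentration not given in the record; tested on top of an EC20 dose of dopamine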
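PathHunter beta-arrestin assay in DiscoveRx D2 cells. Compounds were added with an EC20 of dopamine (50 nM final) for 90 min at 37 deg C. Luminescence was read 1 h after detection reagent, with 57 uM dopamine as the EC100 control.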
CtBP-E1A blk: qHTS Assay for Inhibitors of the CtBP/E1A Interaction. CtBP / adenovirus E1A interaction (AlphaScreen). AlphaScreen GST-E1A/His-CtBP binding, 1536-well; hits give low values; control for the full effect not named in the record. activity change, % (no concentration beside the values). hit rate 0.49% among 340,000. AID 651724, 2012; in the data active means activity change below about -65%; inconclusive means about -30% to -65%; inactive means above about -30%; note: % is set by controls: 0 for no effect and ±100 for the full control effect; compound concentration not given in the record
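AlphaScreen with 125 nM GST-E1A and 125 nM His-CtBP (5X stocks) in Tris pH 8.0, 300 mM NaCl, BSA, Tween 20, TCEP. Compounds preincubated 2 h at 37 deg C, then glutathione donor/nickel acceptor beads added for 1 h at 37 deg C in dark.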
Active calls of the source: *; ? = inconclusive; · = not tested or not shown; [ ] = another dose, or the depositor's remark.

SMILES | TRPML1 ag | D2 ag | PINK1 modulator | Six1-Eya2 blk | D2 PAM | CtBP-E1A blk
COc1cc2c(cc1OC)[C@H](Cc1ccc(O)cc1)NCC2 | -1.0 | 0.1 | -2.2% | -9.9 | -19.2 | 19.4
O=C(Nc1cccc(Cl)c1)OCCOCCOC(=O)Nc1cccc(Cl)c1 | -0.3 | 3.0 | 13.0% | 0.9 | -9.5 | 16.3
CCc1ccc2nc(Nc3ccc(OC)cc3OC)c(C#N)cc2c1 | 2.0 | -2.1 | -1.8% | 6.3 | -3.9 | -6.8
CCn1c(SCC(=O)NCc2ccc3c(c2)OCO3)nnc1-c1c[nH]c2ccccc12 | 1.1 | 0.6 | -1.7% | -4.4 | -9.5 | -1.9
CCOc1ccccc1N1CCN(C(=O)CSc2ccc3c(c2)OCCO3)CC1 | 0.0 | -3.1 | -1.6% | -1.3 | -9.5 | -3.5
CCC1(c2ccccc2)NC(=O)N(CC(=O)Nc2cccc(S(=O)(=O)N3CCCCC3)c2)C1=O (configuration not stated) | -0.3 | -1.1 | 2.3% | -12.4 | -19.3 | 5.2
Cc1nc(Nc2nc3ccccc3o2)nc(C)c1C | -0.5 | -10.6 | 2.1% | -18.7 | 14.3 | -22.7
COc1cc(/C=C/c2c([N+](=O)[O-])c(=O)n(C)c(=O)n2C)cc(OC)c1OC | -0.5 | -0.7 | 0.9%[38.3 µM] | 1.9 | -4.2 | 10.3
CCN(CC)S(=O)(=O)c1cccc(S(=O)(=O)N2CCCCC2)c1 | -0.1 | 2.5 | · | 7.3 | 7.3 | 6.8
O=C(CCCSc1nnc(Nc2ccccc2F)s1)N1CCOCC1 | 0.6 | 0.7 | -1.0% | -9.5 | -36.1 | 0.0
Cc1c(NC(=S)N/N=C/c2cccc(O)c2)c(=O)n(-c2ccccc2)n1C | -0.1 | -0.2 | ? | -0.1 | -17.5 | -12.1
CC(=O)N1c2ccc(S(=O)(=O)N3CCCC3)cc2CC1C(=O)NC(C)C (configuration not stated) | 4.7 | 0.5 | -0.7% | 1.5 | -5.2 | ·
CC(Sc1nnnn1C1CC1)C(=O)N1c2ccccc2NC(=O)C1(C)C (configuration not stated) | 1.2 | -5.0 | -0.5% | -0.2 | -14.6 | -1.1
CCCN1CCN(C(=O)C2CCN(c3ncnc4c3nc3n4CCCCC3)CC2)CC1 | 0.1 | 2.3 | 0.7% | -2.8 | -8.9 | 0.3
COc1ccc(C(=O)Oc2ccc(N(C)S(=O)(=O)c3ccccc3)cc2)cc1[N+](=O)[O-] | 1.7 | 1.6 | 3.2% | -6.6 | -0.5 | -10.2
Cc1ccc(C)c(Cn2c(=O)n(CCC(=O)NCc3ccco3)c(=O)c3ccccc32)c1 | 0.5 | -0.4 | ? | 3.7 | -5.1 | 2.6
CCCc1cc(=O)oc2cc(C)cc(OCC(=O)NCC(O)c3ccccc3)c12 (configuration not stated) | -1.0 | -0.3 | 3.2% | 1.0 | 1.9 | 0.2
Cc1cc(C(=O)Nc2cccc3c2O[C@H](CN(C)CC2CC2)[C@@H](C)CN([C@H](C)CO)C3=O)n(C)n1 | 0.4 | -2.0 | 0.4% | 0.6 | -1.4 | 3.3
Cc1ccccc1Nc1c(-c2ccc(N3CCOCC3)cc2)nc2cnccn12 | 0.4 | -2.8 | 0.8% | -1.1 | -4.8 | 4.7
COCCCNC(=S)N1CCC(C(=O)c2ccc3c(c2)OCCO3)CC1 | 0.1 | 1.1 | 1.9% | 0.0 | -16.5 | -14.5
CCN(CC)c1ccc(C(=O)OCC(=O)N2CCCC2)cc1 | -0.6 | 2.9 | 1.0% | 0.5 | 0.9 | 0.8
O=C1CCN(Cc2ccc(Cl)cc2)N1 | 0.1 | -1.3 | 1.0% | 12.0 | -4.3 | ·
O=c1c(N2CCOCC2)c(N2CCOCC2)c1=O | 2.5 | -6.0 | 1.9% | 6.6 | -7.7 | -1.6
Cc1ccccc1-n1c(=O)c(C#N)cc2c(=O)n3ccccc3nc21 | 1.8 | -2.1 | · | 1.9 | 3.7 | 0.0
CCOc1ccccc1NC(=O)C1CCCN1C(=O)OCc1ccccc1 (configuration not stated) | 4.0 | -1.8 | 2.1% | 5.2 | -13.8 | 4.9
New compounds follow
SMILES | TRPML1 ag | D2 ag | PINK1 modulator | Six1-Eya2 blk | D2 PAM | CtBP-E1A blk
O=C(Nc1c2c(nn1-c1ccc(F)cc1)CS(=O)C2)c1ccc(S(=O)(=O)N2CCOCC2)cc1 (configuration not stated) | -0.2 | -2.2 | 1.0% | 1.0 | -0.4 | -1.4
Cc1nnc2sc(-c3ccco3)nn12 | 0.6 | 0.8 | -1.7%[38.3 µM] | 3.7 | -5.1 | -3.1
Cc1nnc(SCC(=O)N2CCN(c3cccc(Cl)c3)CC2)n1C1CC1 | -0.8 | -1.3 | 0.2% | -0.5 | -0.6 | 3.5
O=C(NCCN1CCOCC1)c1cc(Br)ccc1Cl | -0.1 | -4.4 | 2.5% | 1.3 | -10.0 | -13.1
O=C(c1ccncc1)N1CCCC(N2CCN(c3ccc(F)cc3)CC2)C1 (configuration not stated) | -0.3 | -3.6 | -0.1% | -3.9 | -20.9 | 2.3
Cc1ccc(C(=O)NNC(=O)c2ccncc2)cc1S(=O)(=O)N1CCCCC1 | 0.2 | -2.4 | 1.5% | -6.0 | 22.7 | -2.4
O=C(O)C1(NS(=O)(=O)c2ccc(F)c(Cl)c2)CCCCC1 | 2.3 | 0.1 | 7.9%[38.3 µM] | 8.0 | 3.2 | 10.5
CCOC(=O)C1CCN(C(=O)CCC(=O)NNc2nc3ccccc3c3nc(C)nn23)CC1 | -0.1 | -4.5 | -0.1% | -4.5 | -1.6 | ·
O=C1[C@@H]2[C@@H]3C[C@@H]([C@H]4ON=C(c5ccc(Cl)cc5)[C@@H]34)[C@@H]2C(=O)N1C1CCCCC1 | 2.8 | 1.5 | 3.0% | -2.0 | -8.2 | -19.9
COc1cc(/C=C2\NC(=S)N(C)C2=O)ccc1O | 1.1 | 13.4 | 1.7% | -3.3 | 4.8 | -2.9
Cc1ccccc1NC(=O)Nc1nc2ccc(S(C)(=O)=O)cc2s1 | -0.2 | -4.1 | 3.8% | 14.9 | -2.8 | -8.2
Cn1c(-c2cccc([N+](=O)[O-])c2)cnc1NCc1ccc(C#N)cc1 | -0.3 | 1.9 | -2.6% | -15.3 | -17.5 | ·
Cn1c(=NC(=O)C(C)(C)C)sc2cccc(F)c21 | 0.2 | -4.2 | 3.1% | 12.7 | -13.0 | ·
Cc1cc(C)nc(N/N=C/c2ccccc2Cl)n1 | 2.8 | -1.7 | 1.3% | -4.3 | 7.0 | ·
CNc1nc(NCc2ccc(C)cc2C)c2sccc2n1 | 27.6 | -3.6 | 10.8% | 7.4 | -17.7 | -25.7
CCOC(=O)C1CCN(C(=O)CCCn2nc(C)c3c(C)n(-c4ccc(C)cc4)nc3c2=O)CC1 | -0.9 | -2.9 | 1.4% | -1.4 | -12.0 | -7.6
CSCCC(NC(=O)c1cc([N+](=O)[O-])cc([N+](=O)[O-])c1)c1nc2ccccc2[nH]1 (configuration not stated) | -0.1 | 10.4 | -1.2% | -16.2 | 21.5 | -9.5
C=CCOC(=O)C(C#N)c1nc2ccccc2nc1N1CCN(Cc2ccccc2)CC1 (configuration not stated) | 1.0 | -3.7 | 11.2% | -7.2 | -37.3 | -3.5
CC1(C)CC(CCNS(=O)(=O)c2ccccc2)(c2ccccc2)CCO1 (configuration not stated) | -0.7 | -0.4 | -0.3% | 2.9 | -2.2 | 6.2
CCc1ccc(-n2c(=O)c3c(C)c(C(=O)N(C)C)sc3n(CC(=O)NCc3ccco3)c2=O)cc1 | -0.5 | -2.5 | -0.2%[38.3 µM] | 2.0 | -6.9 | -1.8
C=CCn1c(O)c(N=Nc2nc3ccccc3c(=O)n2-c2ccccc2)c2ccccc21 | 0.1 | -3.5 | ? | -7.1 | -7.8 | 6.1
COc1cc(CNCCCCO)ccc1OCc1ccccc1F | 0.1 | -0.1 | 4.9% | -7.4 | -8.2 | 8.2
CCCCNC(=O)Nc1c(C)cc(SC#N)cc1C | 0.1 | -3.8 | 0.8% | -8.7 | -5.7 | 1.6
CC1CCN(CCNC(=O)c2ccc(NC(=O)C3CCCO3)cc2)CC1 (configuration not stated) | 0.6 | -4.4 | -0.6% | 3.9 | -15.4 | 2.6
Cc1cc(C(=O)OCC(=O)Nc2cccc(S(=O)(=O)N(C)C)c2)c2ccccc2n1 | 2.3 | 3.4 | 2.4% | -7.5 | -8.8 | -8.1
CCOC(=O)C1=C(C)S/C(=C\N(C)C)C1=O | -0.8 | -0.6 | 0.4% | 8.9 | 14.4 | -3.8
COc1ccc(-c2oc3c(c2C#CCCCCO)C(OCCO)CC3)cc1 (configuration not stated) | -0.9 | · | -0.4% | -10.8 | · | -3.7

2 of the compounds above, field by field.
> CCN(CC)c1ccc(C(=O)OCC(=O)N2CCCC2)cc1
  TRPML1 ag = -0.6 | D2 ag = 2.9 | PINK1 modulator = 1.0% | Six1-Eya2 blk = 0.5 | D2 PAM = 0.9 | CtBP-E1A blk = 0.8

> O=C1CCN(Cc2ccc(Cl)cc2)N1
  TRPML1 ag = 0.1 | D2 ag = -1.3 | PINK1 modulator = 1.0% | Six1-Eya2 blk = 12.0 | D2 PAM = -4.3 | CtBP-E1A blk = ·

Filtered by structure, those above with a Cl atom (seven)
SMILES | TRPML1 ag | D2 ag | PINK1 modulator | Six1-Eya2 blk | D2 PAM | CtBP-E1A blk
O=C(Nc1cccc(Cl)c1)OCCOCCOC(=O)Nc1cccc(Cl)c1 | -0.3 | 3.0 | 13.0% | 0.9 | -9.5 | 16.3
O=C1CCN(Cc2ccc(Cl)cc2)N1 | 0.1 | -1.3 | 1.0% | 12.0 | -4.3 | ·
Cc1nnc(SCC(=O)N2CCN(c3cccc(Cl)c3)CC2)n1C1CC1 | -0.8 | -1.3 | 0.2% | -0.5 | -0.6 | 3.5
O=C(NCCN1CCOCC1)c1cc(Br)ccc1Cl | -0.1 | -4.4 | 2.5% | 1.3 | -10.0 | -13.1
O=C(O)C1(NS(=O)(=O)c2ccc(F)c(Cl)c2)CCCCC1 | 2.3 | 0.1 | 7.9%[38.3 µM] | 8.0 | 3.2 | 10.5
O=C1[C@@H]2[C@@H]3C[C@@H]([C@H]4ON=C(c5ccc(Cl)cc5)[C@@H]34)[C@@H]2C(=O)N1C1CCCCC1 | 2.8 | 1.5 | 3.0% | -2.0 | -8.2 | -19.9
Cc1cc(C)nc(N/N=C/c2ccccc2Cl)n1 | 2.8 | -1.7 | 1.3% | -4.3 | 7.0 | ·
